Screening data (PubChem BioAssay)
UUG fidelity: yeast start codon fidelity modulation. S. cerevisiae UUG-firefly luciferase reporter, luminescence/redox ratio. activity score, % at 18.7 µM. hit rate 0.13% among 350,000. AID 602363;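 active = replicate mean at a twofold rise or more, about +100% in these data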;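 also: firefly luciferase made from a UUG start codon reports start codon fidelity; reporter light over untreated wells divided by growth signal over untreated wells; some hits fall short of that in this replicate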
* marks the source's active call; other numbers are inactive results. Some of the compounds tested; rates above refer to the full screens.

Structure | UUG fidelity
CO[C@H]1CN(C)C(=O)c2ccc(NC(C)=O)cc2OC[C@@H](C)N(C(=O)c2cccnc2)C[C@@H]1C | -8
COc1cccc(-c2ccc([C@@H]3[C@H]4CN(C(=O)c5ccc(F)cc5)CCCCN4[C@H]3CO)cc2)c1 | -1
CO[C@@H]1CN(C)C(=O)c2cc(NC(=O)Nc3ccccc3)ccc2OC[C@H](C)N(CC2CC2)C[C@@H]1C | 8
CN(C)C(=O)c1cccc(-c2ccc([C@@H]3[C@@H](CO)N4CCCCN(CC5CCOCC5)C[C@@H]34)cc2)c1 | 6
O=C(C[C@@H]1C[C@H]2c3cc(NC(=O)NC4CCCC4)ccc3O[C@H]2[C@H](CO)O1)NCc1ccc(Cl)cc1 | 48
O=C(C[C@@H]1CC[C@H]2[C@@H](COC[C@H](O)CN2Cc2ccccc2)O1)N[C@@H]1CCN(Cc2ccccc2)C1 | 13
C[C@@H]1CN([C@H](C)CO)C(=O)c2cc(NC(=O)Cc3cn(C)c4ccccc34)ccc2O[C@@H]1CN(C)CC1CCCCC1 | 13
CO[C@H]1CN(C)C(=O)c2cc(NS(=O)(=O)c3ccccc3)ccc2OC[C@@H](C)NC[C@H]1C | -4
Cc1ccc(S(=O)(=O)N(C)C[C@H]2Oc3ccc(NC(=O)Nc4ccccc4)cc3CC(=O)N([C@H](C)CO)C[C@@H]2C)cc1 | -4
C[C@H](CO)N1C[C@H](C)[C@H](CN(C)C(=O)Nc2ccc(F)cc2)Oc2ccc(NS(=O)(=O)c3ccccc3)cc2CC1=O | 6
C[C@@H]1CN([C@@H](C)CO)C(=O)c2cc(NC(=O)Nc3ccc4c(c3)OCO4)ccc2O[C@H]1CN(C)Cc1ccc(C(=O)O)cc1 | 10
C[C@@H]1CN([C@H](C)CO)C(=O)c2cccc(NC(=O)c3ccc(-c4nccs4)cc3)c2O[C@@H]1CN(C)C(=O)Nc1ccc(C(F)(F)F)cc1 | -3
C[C@H](CO)N1C[C@H](C)[C@@H](CN(C)S(=O)(=O)c2ccc(F)cc2)Oc2ccc(NC(=O)NC3CCCCC3)cc2CC1=O | 18
O=C(C1CC1)N1CC[C@@H]2[C@H](CO)Nc3ccc(-c4cccc(F)c4)cc3[C@@H]21 | -4
C[C@@H]1CN([C@@H](C)CO)C(=O)c2cc(NC(=O)CCC(F)(F)F)ccc2O[C@H]1CN(C)Cc1ccc(C(F)(F)F)cc1 | 2
CO[C@H]1CN(C)C(=O)c2ccc(NS(C)(=O)=O)cc2OC[C@@H](C)N(C(=O)C2CCCC2)C[C@H]1C | 8
COc1cccc(C(=O)Nc2ccc3c(c2)OC[C@@H](C)N(CC2CC2)C[C@@H](C)[C@@H](OC)CN(C)C3=O)c1 | -3
CN1C(=O)c2cc(NC(=O)c3cnccn3)ccc2OC[C@H]2O[C@H](CC(=O)N[C@@H]3CCN(Cc4ccccc4)C3)CC[C@@H]21 | 1
COc1ccc(NC(=O)N(C)C[C@H]2Oc3ccc(NS(=O)(=O)c4c(C)noc4C)cc3C(=O)N([C@@H](C)CO)C[C@H]2C)cc1 | 4
Cc1ccc(S(=O)(=O)N(C)C[C@H]2Oc3ccc(NC(=O)Cn4cnnn4)cc3C(=O)N([C@@H](C)CO)C[C@H]2C)cc1 | 7
COCC#Cc1ccc([C@H]2[C@H](CO)N3CCCCN(C(=O)CN(C)C)C[C@@H]23)cc1 | 12
COc1ccc(NC(=O)Nc2ccc3c(c2)CC(=O)N([C@@H](C)CO)C[C@@H](C)[C@@H](CN(C)Cc2ccncc2)O3)cc1 | -3
O=C(CC(F)(F)F)N1C[C@H]2[C@@H](c3ccccc31)[C@@H](CO)N2C(=O)C1CC1 | 26
O=C(Nc1ccc(F)cc1)N1C[C@H]2[C@@H](c3ccccc31)[C@@H](CO)N2C(=O)Cc1cccnc1 | -3
COc1ccc(C#Cc2ccc([C@H]3[C@H]4CN(S(=O)(=O)c5cn(C)cn5)CCCCN4[C@H]3CO)cc2)cc1 | 7

The listing continues:
Structure | UUG fidelity
O=C(Nc1cc(F)ccc1F)N1CCCCN2[C@H](CO)[C@@H](c3ccc(-c4cncnc4)cc3)[C@H]2C1 | 4
O=C(C1CC1)N1[C@@H](CO)[C@@H]2c3ccccc3NC[C@@H]21 | -3
CC(C)NC(=O)N(C)C[C@@H]1Oc2ccc(NC(=O)CCCN(C)C)cc2C(=O)N([C@@H](C)CO)C[C@@H]1C | 6
CN1c2ccc(Br)cc2[C@H]2[C@H](CCN2S(=O)(=O)c2ccccc2)[C@@H]1CO | 1
CNC[C@@H]1Oc2c(NC(=O)Nc3ccc(F)cc3)cccc2C(=O)N([C@H](C)CO)C[C@H]1C | -5
C[C@@H]1CN([C@@H](C)CO)C(=O)Cc2cc(NC(=O)Cn3cnnn3)ccc2O[C@H]1CN(C)Cc1ccncc1 | -19
C[C@@H]1CN([C@@H](C)CO)C(=O)c2cc(NS(=O)(=O)c3cccs3)ccc2O[C@H]1CN(C)C(=O)Nc1cccc2ccccc12 | 0
C[C@H](CO)N1C[C@H](C)[C@H](CN(C)C(=O)Nc2ccc(F)cc2)Oc2c(NC(=O)Nc3ccc(C(F)(F)F)cc3)cccc2C1=O | -10
CN1CCCCN2[C@H](C1)[C@@H](c1ccc(-c3ccccc3)cc1)[C@@H]2CO | 3
C[C@H]1CN([C@@H](C)CO)C(=O)CCCn2nncc2CO[C@@H]1CN(C)Cc1ccc(C(=O)Nc2ccccc2N)cc1 | -2
COc1ccc(NC(=O)Nc2cccc3c2O[C@H](CN(C)Cc2ccncc2)[C@H](C)CN([C@H](C)CO)C3=O)cc1 | 0
COc1ccc(S(=O)(=O)N(C)C[C@@H]2Oc3ccc(NC(=O)C4CC4)cc3C(=O)N([C@@H](C)CO)C[C@H]2C)cc1 | 30
O=C(C[C@@H]1C[C@H]2c3cc(NC(=O)Nc4ccccc4F)ccc3O[C@H]2[C@H](CO)O1)NCCc1ccccc1 | 4
O=C(Nc1ccccc1F)N1CCCCN2[C@H](CO)[C@H](c3ccc(-c4cccnc4)cc3)[C@H]2C1 | -4
O=C(Nc1ccc(F)cc1)N1C[C@H]2[C@@H](c3ccccc31)[C@@H](CO)N2C(=O)Cc1ccccc1 | 16
C[C@@H]1CN([C@H](C)CO)C(=O)Cc2cc(NS(C)(=O)=O)ccc2O[C@H]1CN(C)C(=O)Nc1ccc(F)cc1 | 4
CO[C@H]1CN(C)C(=O)c2cc(NC(=O)Nc3ccccc3)ccc2OC[C@@H](C)N(CC2CC2)C[C@H]1C | 8
CC(C)NC(=O)Nc1ccc2c(c1)C(=O)N([C@@H](C)CO)C[C@H](C)[C@H](CN(C)S(=O)(=O)c1ccc(Cl)cc1)O2 | -3
O=C(Nc1ccccc1)N1C[C@@H]2[C@H](c3ccccc31)[C@@H](CO)N2Cc1ccccc1 | 3
O=C(Nc1ccc(Cl)cc1)N1C[C@@H]2[C@H](c3ccccc31)[C@H](CO)N2C(=O)C1CC1 | -7
COc1ccc(S(=O)(=O)N(C)C[C@H]2Oc3ccc(NS(=O)(=O)c4ccc(Cl)cc4)cc3C(=O)N([C@H](C)CO)C[C@@H]2C)cc1 | -4
C[C@H]1CN([C@@H](C)CO)C(=O)c2cc(NS(C)(=O)=O)ccc2O[C@H]1CN(C)S(C)(=O)=O | -3
O=C(C[C@@H]1CC[C@H]2[C@@H](COC[C@@H](O)CN2C(=O)c2ccc(F)cc2)O1)Nc1nccs1 | 1
O=C(C1CCOCC1)N1C[C@@H]2[C@H](c3ccccc31)[C@H](CO)N2Cc1ccccc1F | 9
COc1ccc(NC(=O)N(C)C[C@H]2Oc3ccc(NC(=O)Nc4ccccc4)cc3C(=O)N([C@H](C)CO)C[C@@H]2C)cc1 | 6

> CC(C)NC(=O)N1CCCCN2[C@H](CO)[C@H](c3ccc(Br)cc3)[C@@H]2C1
  UUG fidelity: 0

> Cc1noc(C)c1S(=O)(=O)Nc1ccc2c(c1)C(=O)N([C@@H](C)CO)C[C@@H](C)[C@@H](CN(C)Cc1ccc(Oc3ccccc3)cc1)O2
  UUG fidelity: 12

> CO[C@H]1CN(C)C(=O)c2cc(NC(=O)NC(C)C)ccc2OC[C@H](C)N(C)C[C@H]1C
  UUG fidelity: -17

> C[C@H]1CN([C@@H](C)CO)C(=O)c2c(c3ccccc3n2C)-c2ccccc2CO[C@@H]1CN(C)S(=O)(=O)c1ccc(C#N)cc1
  UUG fidelity: 0

> OC[C@@H]1[C@@H](c2ccc(-c3ccccc3)cc2)[C@@H]2CN(Cc3cncnc3)CCCCN12
  UUG fidelity: -11

> COc1ccccc1CN1[C@@H]2CN(C(=O)c3cccnc3)c3ccccc3[C@@H]2[C@@H]1CO
  UUG fidelity: 60

> O=C(C[C@@H]1CC[C@@H]2[C@H](COC[C@H](O)CN2S(=O)(=O)c2ccc(F)cc2)O1)NCc1ccncn1
  UUG fidelity: 10

> C[C@H](CO)N1C[C@H](C)[C@@H](CN(C)S(=O)(=O)c2ccc(Cl)cc2)Oc2ccc(NC(=O)CCCN(C)C)cc2C1=O
  UUG fidelity: 13

> CO[C@H]1CN(C)C(=O)c2cc(NC(=O)Nc3ccc4c(c3)OCO4)ccc2OC[C@H](C)NC[C@H]1C
  UUG fidelity: -21

> COc1ccc(NC(=O)N(C)C[C@H]2Oc3ccc(NS(C)(=O)=O)cc3C(=O)N([C@H](C)CO)C[C@H]2C)cc1
  UUG fidelity: -9

> Cc1ccc(-c2ccc([C@@H]3[C@H](CO)N4CCCCN(Cc5ccccn5)C[C@@H]34)cc2)cc1
  UUG fidelity: -31

> O=C(NC[C@H]1N[C@@H](CO)[C@H]1c1ccc(-c2ccccc2F)cc1)c1ccccn1
  UUG fidelity: -10

> O=C(C[C@@H]1CC[C@H]2[C@@H](COC[C@H](O)CN2Cc2nccs2)O1)NCc1ccc(Cl)cc1
  UUG fidelity: -12

> C[C@@H]1CN([C@H](C)CO)C(=O)c2cc(NS(=O)(=O)c3cn(C)cn3)ccc2O[C@@H]1CN(C)Cc1ccc(Oc2ccccc2)cc1
  UUG fidelity: -7

> Cc1noc(C)c1NC(=O)Nc1ccc2c(c1)CC(=O)N([C@H](C)CO)C[C@H](C)[C@@H](CN(C)C)O2
  UUG fidelity: 17

> COc1ccc(NC(=O)N2C[C@@H](O)COC[C@H]3O[C@H](CC(=O)N4CCOCC4)CC[C@@H]32)cc1
  UUG fidelity: 11

> N#Cc1ccc(-c2ccc([C@H]3[C@@H](CO)N4CCCCN(S(=O)(=O)c5ccccc5)C[C@H]34)cc2)cc1
  UUG fidelity: 2

> O=C(C1CCC1)N1CC[C@@H]2[C@H]1c1cc(-c3cccc(F)c3)ccc1N[C@@H]2CO
  UUG fidelity: -17

> C[C@@H]1CN([C@H](C)CO)C(=O)c2cc(NC(=O)Nc3ccccc3)ccc2O[C@H]1CN(C)Cc1ccc2c(c1)OCO2
  UUG fidelity: -8

> OC[C@H]1[C@@H](c2ccc(C#CC3(O)CCCC3)cc2)[C@H]2CN(Cc3ccncc3)CCCCN21
  UUG fidelity: 12

> C[C@@H]1CN([C@H](C)CO)C(=O)Cc2cc(NC(=O)c3ccncc3)ccc2O[C@H]1CN(C)C(=O)Nc1ccccc1
  UUG fidelity: -5

> C[C@@H]1CN([C@H](C)CO)C(=O)CCCn2cc(nn2)CO[C@H]1CN(C)CC1CCCC1
  UUG fidelity: 15

> COCC(=O)N1C[C@H]2[C@@H](c3ccccc31)[C@H](CO)N2C(=O)Nc1ccccc1Cl
  UUG fidelity: -1

> O=C(c1cccc(F)c1)N1CC[C@@H]2[C@H](CO)Nc3ccc(-c4ccc(F)cc4)cc3[C@@H]21
  UUG fidelity: 18

> CCCN1C[C@H](C)[C@H](OC)CN(C)C(=O)c2cc(NC(=O)C3CC3)ccc2OC[C@H]1C
  UUG fidelity: -2

> O=C(C1CCC1)N1CCCCN2[C@H](CO)[C@@H](c3ccc(C#CC4(O)CCCC4)cc3)[C@H]2C1
  UUG fidelity: 7

> Cc1noc(C)c1NC(=O)N(C)C[C@@H]1Oc2ccc(NC(=O)Cc3cn(C)c4ccccc34)cc2C(=O)N([C@@H](C)CO)C[C@H]1C
  UUG fidelity: -4

> O=C(C1CC1)N1CCCCN2[C@H](C1)[C@@H](c1ccc(-c3cccc(F)c3)cc1)[C@@H]2CO
  UUG fidelity: 19

> CC(=O)N1CC[C@@H]2[C@H](CO)Nc3ccc(C#Cc4ccccc4F)cc3[C@@H]21
  UUG fidelity: -1

> CCCNC(=O)Nc1ccc2c(c1)OC[C@@H](C)N(C(=O)c1ccccc1F)C[C@@H](C)[C@H](OC)CN(C)C2=O
  UUG fidelity: 10

Some of the entries above in another layout:
UUG fidelity | molecule
-5 | C[C@@H]1CN([C@H](C)CO)C(=O)Cc2cc(NC(=O)c3ccncc3)ccc2O[C@H]1CN(C)C(=O)Nc1ccccc1
15 | C[C@@H]1CN([C@H](C)CO)C(=O)CCCn2cc(nn2)CO[C@H]1CN(C)CC1CCCC1

(more compounds)
> OC[C@@H]1[C@H](c2ccc(C#CC3CC3)cc2)[C@@H]2CN(CCC(F)(F)F)CCCCN12
  UUG fidelity: 9

> CC(C)C#Cc1ccc([C@@H]2[C@H](CO)N3CCCCN(C(=O)c4ccc(F)cc4)C[C@@H]23)cc1
  UUG fidelity: 16

> OC[C@@H]1Nc2ccc(-c3ccccc3)cc2[C@@H]2[C@H]1CCN2Cc1ccccc1F
  UUG fidelity: 7

> COc1ccc(NC(=O)Nc2cccc3c2O[C@@H](CN(C)C)[C@@H](C)CN([C@@H](C)CO)C3=O)cc1
  UUG fidelity: -6

> COCC(=O)N1[C@H](CO)[C@H]2c3ccccc3N(C(=O)c3cccc(OC)c3)C[C@H]21
  UUG fidelity: 5

> CCC(=O)N1CCCCN2[C@@H](CO)[C@H](c3ccc(-c4cccc(C#N)c4)cc3)[C@@H]2C1
  UUG fidelity: -4

In a second layout: entries from further up.
UUG fidelity	SMILES
6	COc1ccc(NC(=O)N(C)C[C@H]2Oc3ccc(NC(=O)Nc4ccccc4)cc3C(=O)N([C@H](C)CO)C[C@@H]2C)cc1
5	COCC(=O)N1[C@H](CO)[C@H]2c3ccccc3N(C(=O)c3cccc(OC)c3)C[C@H]21
-10	C[C@H](CO)N1C[C@H](C)[C@H](CN(C)C(=O)Nc2ccc(F)cc2)Oc2c(NC(=O)Nc3ccc(C(F)(F)F)cc3)cccc2C1=O
